Assay outcomes as filed in PubChem.
NPYLR7 ag: mosquito NPYLR7 agonism. HEK293T NPYLR7/Galpha15, GCaMP6s calcium fluorescence. activation, % at 10 µM. 270,000 compounds, 0.15% hits. AID 1259423; in the data active = activation above about 40%;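 note: 0% = vehicle and 100% = reference agonist at the receptor; some compounds past the cut are filed as inactive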
NPYLR7 ag max-min: also measured in NPYLR7 ag; calls as there; activation, %; measured here: Max-Min RFU normalised activation; some inactives read as strong as hits;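 span of the calcium signal over five minutes; 0% = vehicle and 100% = native peptide agonist; compound fluorescence can raise it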
An asterisk follows results filed as active; & = joins results of further samples.

`CCOc1ccc(N2C(=O)CC(N3CCN(CCO)CC3)C2=O)cc1` (stereo not given) gave NPYLR7 ag -3.9 and NPYLR7 ag max-min -5.5.
COCCn1c(=NC(=O)c2ccc(Br)s2)sc2cc(S(C)(=O)=O)ccc21 was read as NPYLR7 ag 2.2 and NPYLR7 ag max-min -1.0.
N#CCCN(Cc1ccccc1)C(=O)c1ccc(-n2nc(-c3cccc(Cl)c3)cc2N)cc1 was read as NPYLR7 ag 1.0 and NPYLR7 ag max-min -5.7.
Cc1ccc(-n2nnnc2CNS(=O)(=O)c2ccccc2)cc1 was read as NPYLR7 ag 2.6 and NPYLR7 ag max-min -0.2.
For O=S(=O)(NNc1ccccn1)c1cccc(Cl)c1Cl the results were NPYLR7 ag 3.5 and NPYLR7 ag max-min 3.6.
COc1ccc(S(=O)(=O)NC(C)c2ccccn2)cc1 (stereo not given) was read as NPYLR7 ag 8.1 and NPYLR7 ag max-min 5.0.
`CCC1SC(=Nc2ccc(Br)cc2)NC1=O` (stereo not given) gave NPYLR7 ag -8.5 and NPYLR7 ag max-min -9.9.
`CCCCCN1N=C(c2ccc(F)cc2)Cn2c1nc1c2c(=O)n(C)c(=O)n1C` gave NPYLR7 ag 4.0 and NPYLR7 ag max-min -0.1.
Screening COc1ccc(Cn2c(CN3CCc4ccccc4C3)n[nH]c2=O)cc1 returned NPYLR7 ag -2.3 and NPYLR7 ag max-min -0.8.
For O=C(c1ccc2c3c(cccc13)CC2)C1CCCN(C(=O)CSc2ncccn2)C1 (stereo not given) the results were NPYLR7 ag -2.2 and NPYLR7 ag max-min -7.4.
For COC(=O)c1ccc(N=C(C)c2c(C(F)(F)F)[nH]n(-c3nc4ccccc4s3)c2=O)cc1 the results were NPYLR7 ag -11.3 and NPYLR7 ag max-min -17.3.
For O=C(NCc1ccccn1)c1ccc(-c2cc(-c3cccc4ccccc34)[nH]n2)cc1 the results were NPYLR7 ag -0.4 and NPYLR7 ag max-min 5.7.
CC1=CC=CN2C(=O)NC(C(F)(F)F)(C(F)(F)F)N=C12 was read as NPYLR7 ag 9.1 and NPYLR7 ag max-min 2.1.
CC(=O)Nc1ccc(NC(=O)CCn2c(=O)oc3ccccc32)cc1 was read as NPYLR7 ag 4.7 and NPYLR7 ag max-min 0.0.
For Cc1ccc(-c2nc(CO/N=C(/N)C(C)n3ccnc3)cs2)o1 (stereo not given) the results were NPYLR7 ag 0.7 and NPYLR7 ag max-min -1.7.
Screening Cc1ccc(-c2nnc3ccc(SCC(=O)Nc4nc(C)cs4)nn23)cc1 returned NPYLR7 ag 17.4 and NPYLR7 ag max-min 21.6.
Screening Cc1ccccc1CC1(CO)CCCN(CC#Cc2ccccc2)C1 (stereo not given) returned NPYLR7 ag -1.2 and NPYLR7 ag max-min 1.4.
For Cc1ccc(CC(=O)Nc2ccc(C3=NNC(=O)CC3)cc2)cc1 the results were NPYLR7 ag -7.4 and NPYLR7 ag max-min -7.6.
Screening CCc1cccc2c(C(CC(=O)NCCc3ccc(OC)c(OC)c3)c3cccc([N+](=O)[O-])c3)c[nH]c12 (stereo not given) returned NPYLR7 ag -9.4 and NPYLR7 ag max-min -4.4.
For O=C(Oc1coc(CSc2ncccn2)cc1=O)c1cc(Cl)ccc1Cl the results were NPYLR7 ag -11.6 and NPYLR7 ag max-min -7.6.
Cc1ccccc1-c1cc(C(=O)NCC2CCOC2)c2cnn(C(C)C)c2n1 (stereo not given) was read as NPYLR7 ag 6.2 and NPYLR7 ag max-min 6.6.
For COc1cccc2c1N(C(=O)CCNC(=O)c1cccs1)CCC2 the results were NPYLR7 ag -0.2 and NPYLR7 ag max-min -0.4.
Cc1nc(CN2CCN(C(=O)c3cnn(Cc4ccccc4)c3)CC2)no1 was read as NPYLR7 ag -5.1 and NPYLR7 ag max-min -9.1.
COc1ccc(NC(C)=O)cc1NC(=O)Cc1coc2c(C)c(C)ccc12 was read as NPYLR7 ag 7.3 and NPYLR7 ag max-min 1.9.
Screening COc1ccc(N2CC(c3nc4ccccc4n3Cc3ccc(F)cc3)CC2=O)cc1 (stereo not given) returned NPYLR7 ag 0.7 and NPYLR7 ag max-min -2.5.
CN1C(=O)N(Cc2ccccc2)C2(CCN(Cc3cccc(C(F)(F)F)c3)CC2)C1=O was read as NPYLR7 ag 17.4 and NPYLR7 ag max-min 2.0.
For Cc1nc2ccccn2c1C(=O)OCc1cc(-c2ccc3c(c2)OCO3)on1 the results were NPYLR7 ag -2.2 and NPYLR7 ag max-min -3.7.
For O=c1c(Cl)cc(C(F)(F)F)cn1Cc1coc(-c2cccs2)n1 the results were NPYLR7 ag -1.6 and NPYLR7 ag max-min 1.0.
COc1cccc(C2=NN(C(C)=O)C(C(=O)N(CC(C)C)CC(C)C)O2)c1 (stereo not given) was read as NPYLR7 ag 6.6 and NPYLR7 ag max-min 3.3.
`CC1CCCCN1CCCNC(=O)c1cc2n(n1)CCN(Cc1ccc(Cl)cc1)C2=O` (stereo not given) gave NPYLR7 ag 17.1 and NPYLR7 ag max-min 24.1.
Nc1ccc(-c2cn3ccsc3n2)cc1 was read as NPYLR7 ag 2.1 and NPYLR7 ag max-min 10.1.
For O[C@H]1C[C@@H]2CN(Cc3cccc4c3oc3ccccc34)C[C@@H]2C[C@@H]1O the results were NPYLR7 ag 0.1 and NPYLR7 ag max-min 0.6.
`COc1ccc(CN(C(=O)CC(C)(C)C)C2CC2)cc1OCc1nc(CO)cs1` gave NPYLR7 ag 16.1 and NPYLR7 ag max-min 9.3.
COC(=O)c1c(O)nc2c(C)cccn2c1=O was read as NPYLR7 ag 2.7 and NPYLR7 ag max-min -0.6.
CCOC(=O)N1CCN(C(=O)CC(c2ccc(C(C)(C)C)cc2)c2c[nH]c3ccccc23)CC1 (stereo not given) was read as NPYLR7 ag 9.0 and NPYLR7 ag max-min 9.8.
For Nc1nc(-c2ccccn2)nn1C(=O)CN1CCS(=O)(=O)CC1 the results were NPYLR7 ag 17.4 and NPYLR7 ag max-min 14.9.
Screening COc1ccc(NC(=O)CN(C)C(=O)c2cc(C)oc2C)cc1 returned NPYLR7 ag 6.7 and NPYLR7 ag max-min 1.0.
Screening COc1ccc(-c2noc(-c3c(SC)nn(CC(=O)Nc4ccccc4)c3N)n2)cc1 returned NPYLR7 ag 1.4 and NPYLR7 ag max-min 2.4.
`COc1ccccc1Cc1nc2c(c(N3CCOCC3)n1)CN(C(=O)Nc1cccc(Br)c1)CC2` gave NPYLR7 ag -4.4 and NPYLR7 ag max-min -0.7.
CC(C)NC(=O)/C=C/c1cn(-c2ccccc2)nc1-c1cccs1 was read as NPYLR7 ag -9.0 and NPYLR7 ag max-min -12.1.

By substructure, the entries above containing a Cl atom
N#CCCN(Cc1ccccc1)C(=O)c1ccc(-n2nc(-c3cccc(Cl)c3)cc2N)cc1 was read as NPYLR7 ag 1.0 and NPYLR7 ag max-min -5.7.
For O=S(=O)(NNc1ccccn1)c1cccc(Cl)c1Cl the results were NPYLR7 ag 3.5 and NPYLR7 ag max-min 3.6.
For O=C(Oc1coc(CSc2ncccn2)cc1=O)c1cc(Cl)ccc1Cl the results were NPYLR7 ag -11.6 and NPYLR7 ag max-min -7.6.
For O=c1c(Cl)cc(C(F)(F)F)cn1Cc1coc(-c2cccs2)n1 the results were NPYLR7 ag -1.6 and NPYLR7 ag max-min 1.0.
`CC1CCCCN1CCCNC(=O)c1cc2n(n1)CCN(Cc1ccc(Cl)cc1)C2=O` (stereo not given) gave NPYLR7 ag 17.1 and NPYLR7 ag max-min 24.1.

Remaining list, next part.
For COC(=O)c1ccc(C(=O)N2CCC(n3c(=O)oc4ccc(F)cc43)CC2)cc1 the results were NPYLR7 ag 16.2 and NPYLR7 ag max-min 17.8.
CC1(C(=O)NS(=O)(=O)c2ccc(Cl)s2)CCN1C(=O)CCc1cccs1 (stereo not given) was read as NPYLR7 ag 1.6 and NPYLR7 ag max-min -0.9.
CS(=O)(=O)c1ccc(-c2cnc3c(NC=O)cc(-c4ccsc4)cn23)cc1 was read as NPYLR7 ag -6.7 and NPYLR7 ag max-min -9.1.
For Cc1cc(C)cc(C(=O)N(C)[C@H](Cc2ccc(-c3ccccc3)cc2)C(=O)N[C@@H](Cc2c[nH]c3ccccc23)C(=O)O)c1 the results were NPYLR7 ag -11.9 and NPYLR7 ag max-min -13.7.
For C=CCc1cccc2cc(C(=O)N3CCN(Cc4ccccc4)CC3)c(=O)oc12 the results were NPYLR7 ag 11.9 and NPYLR7 ag max-min 12.5.
Screening COc1cccc(CN(CC(O)Cc2ccccc2)CC2CC(c3ccccc3F)=NO2)c1 (stereo not given) returned NPYLR7 ag -0.4 and NPYLR7 ag max-min 3.8.
CN(C)S(=O)(=O)c1ccc2c(c1)nc(CCC(=O)N1CCC(CCc3ccc(O)cc3)CC1)n2C was read as NPYLR7 ag 3.3 and NPYLR7 ag max-min 7.3.
`CC(C(=O)NN)n1ccnc1` (stereo not given) gave NPYLR7 ag -8.3 and NPYLR7 ag max-min -10.3.
Screening COCC(=O)N1CCN(c2nc(-c3ccccc3)nc(C)c2Cc2c(F)cccc2Cl)CC1 returned NPYLR7 ag -0.7 and NPYLR7 ag max-min -0.5.
`CC(C)(C)c1cc2nc(-c3ccccc3Cl)cc(C(=O)N3CCC(C(N)=O)CC3)n2n1` gave NPYLR7 ag 11.9 and NPYLR7 ag max-min 19.2.
Screening O=C1/C(=C/c2ccc([N+](=O)[O-])cc2)C=C(c2ccccc2)N1c1ccc2ccccc2c1 returned NPYLR7 ag -0.5 and NPYLR7 ag max-min 8.5.
CCN1CCCC1CNC(=S)NC1CCOc2c(Cl)cccc21 (stereo not given) was read as NPYLR7 ag 7.9 and NPYLR7 ag max-min 3.2.
Screening Cc1ccc(S(=O)(=O)CCC(=O)N(CCCN2CCOCC2)c2nc3ccccc3s2)cc1 returned NPYLR7 ag 3.5 and NPYLR7 ag max-min -2.1.
Screening CCC(=O)N1CCC1(C)C(=O)Nc1nccs1 (stereo not given) returned NPYLR7 ag 3.9 and NPYLR7 ag max-min 1.2.
`O=C(NCC(c1ccncc1)N1CCOCC1)c1cn(Cc2ccc(F)cc2Cl)nn1` (stereo not given) gave NPYLR7 ag 6.5 and NPYLR7 ag max-min 3.0.
Screening O=C(c1ccc(-c2ccc(-c3ccn[nH]3)cc2)o1)N1CCCC1 returned NPYLR7 ag 3.4 and NPYLR7 ag max-min 1.5.
`Cc1ccc(C(C)NC(=O)N2CCN(Cc3cccs3)CC2)o1` (stereo not given) gave NPYLR7 ag 4.9 and NPYLR7 ag max-min 1.3.
Screening c1cnc2c(-c3ccc4[nH]ncc4c3)cccc2c1 returned NPYLR7 ag -3.0 and NPYLR7 ag max-min -5.1.
For CC(C)C1=NOC(C(=O)N2CCCn3nc(C(=O)N4CCCC4)cc3C2)C1 (stereo not given) the results were NPYLR7 ag 4.7 and NPYLR7 ag max-min 2.9.
`Oc1ccc(N=Nc2ccc3c(c2)OCO3)c2ccccc12` gave NPYLR7 ag -3.9 and NPYLR7 ag max-min -11.1.

The final three compounds of the part before are carried over, then new ones follow:
Screening c1cnc2c(-c3ccc4[nH]ncc4c3)cccc2c1 returned NPYLR7 ag -3.0 and NPYLR7 ag max-min -5.1.
For CC(C)C1=NOC(C(=O)N2CCCn3nc(C(=O)N4CCCC4)cc3C2)C1 (stereo not given) the results were NPYLR7 ag 4.7 and NPYLR7 ag max-min 2.9.
`Oc1ccc(N=Nc2ccc3c(c2)OCO3)c2ccccc12` gave NPYLR7 ag -3.9 and NPYLR7 ag max-min -11.1.
For CCCSc1nnc2nc(C)cc(C)n12 the results were NPYLR7 ag -1.1 and NPYLR7 ag max-min 3.3.
O=C(CC1OC(=O)c2ccccc21)NCc1nnc2ccccn12 (stereo not given) was read as NPYLR7 ag 1.6 and NPYLR7 ag max-min 8.2.
For FC(F)(F)c1cccc(SCc2csc(-c3ccc(Cl)cc3)n2)c1 the results were NPYLR7 ag 26.7 and NPYLR7 ag max-min 30.9.
Screening O=C(c1ccccc1)C1CCCN(C2CCN(C(=O)c3cnccn3)CC2)C1 (stereo not given) returned NPYLR7 ag 0.5 and NPYLR7 ag max-min -4.1.
CCC(C(=O)N(CCN1CCOCC1)CC(=O)N(Cc1ccc(F)cc1)Cc1sccc1C)c1ccccc1 (stereo not given) was read as NPYLR7 ag 2.4 and NPYLR7 ag max-min 0.3.
Cc1ncc2c(n1)C[C@@H](Cc1ccccc1)N(CC(=O)OC(C)(C)C)C2=O was read as NPYLR7 ag 22.2 and NPYLR7 ag max-min 15.8.
Screening CSc1ccc2c(c1)N(CCC1CCCCN1C)c1ccccc1S2 (stereo not given) returned NPYLR7 ag -9.9&-4.2&-3.3&2.9 and NPYLR7 ag max-min -14.9&-7.0&-5.7&-13.5.
CCCS(=O)(=O)N1CCN(c2ncnc3c2nnn3-c2ccc(F)cc2)CC1 was read as NPYLR7 ag -14.0 and NPYLR7 ag max-min -20.6.
N#C/C(=C1\NS(=O)(=O)c2ccccc21)c1nc2ccc(F)cc2c(=O)[nH]1 was read as NPYLR7 ag -0.9 and NPYLR7 ag max-min -0.1.
Cc1cccc(C2CCCN2C(=O)c2cnn3c(C(F)F)cc(C4CC4)nc23)c1 (stereo not given) was read as NPYLR7 ag -4.3 and NPYLR7 ag max-min -9.9.
`COc1cccc(N2C(=O)CSC2c2cccc(NC(=O)CCl)c2)c1` (stereo not given) gave NPYLR7 ag -7.0 and NPYLR7 ag max-min -5.3.
CC(=O)N1N=C(C(C)(C)C)CC1c1ccc(N(C)C)cc1 (stereo not given) was read as NPYLR7 ag 7.4 and NPYLR7 ag max-min 5.6.
`Cc1ccc2cc(CN3CC[C@H](CO)[C@H](O)C3)c(N3CCOCC3)nc2c1` gave NPYLR7 ag 2.1 and NPYLR7 ag max-min -0.2.
`Cc1ccc(CN(CCc2ccccc2)C(=O)CN(CCN2CCCCC2)C(=O)c2ccc(F)cc2)o1` gave NPYLR7 ag -3.3 and NPYLR7 ag max-min 3.4.
COC(=O)C1CCN(S(=O)(=O)c2c(C)c(C)cc(C)c2C)CC1 was read as NPYLR7 ag -1.5 and NPYLR7 ag max-min 3.1.

An excerpt; count on the stated rates, not on these rows.
